KCNQ2 pot – KCNQ2 (rat) channel potentiation; B-score at 10 µM; actives 0.54% (n = 310,000); CHO-K1 KCNQ2, FluxOR thallium flux fluorescence; active compounds read high;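 active means fluorescence ratio B-score at least 3 SD of library B-scores, with initial fluorescence B-score within 3 SD, cut at about 5.3 in these data; same plate scores as AID 2156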;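 further: B-score of peak minus minimum over baseline fluorescence ratio after K+ and Tl+ stimulus; positive B-score means potentiation of KCNQ2 with more thallium influx and brighter signal; only the inactives scoring about 0 or higher are listed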
Target sequence (O88943 whole entry, looked up): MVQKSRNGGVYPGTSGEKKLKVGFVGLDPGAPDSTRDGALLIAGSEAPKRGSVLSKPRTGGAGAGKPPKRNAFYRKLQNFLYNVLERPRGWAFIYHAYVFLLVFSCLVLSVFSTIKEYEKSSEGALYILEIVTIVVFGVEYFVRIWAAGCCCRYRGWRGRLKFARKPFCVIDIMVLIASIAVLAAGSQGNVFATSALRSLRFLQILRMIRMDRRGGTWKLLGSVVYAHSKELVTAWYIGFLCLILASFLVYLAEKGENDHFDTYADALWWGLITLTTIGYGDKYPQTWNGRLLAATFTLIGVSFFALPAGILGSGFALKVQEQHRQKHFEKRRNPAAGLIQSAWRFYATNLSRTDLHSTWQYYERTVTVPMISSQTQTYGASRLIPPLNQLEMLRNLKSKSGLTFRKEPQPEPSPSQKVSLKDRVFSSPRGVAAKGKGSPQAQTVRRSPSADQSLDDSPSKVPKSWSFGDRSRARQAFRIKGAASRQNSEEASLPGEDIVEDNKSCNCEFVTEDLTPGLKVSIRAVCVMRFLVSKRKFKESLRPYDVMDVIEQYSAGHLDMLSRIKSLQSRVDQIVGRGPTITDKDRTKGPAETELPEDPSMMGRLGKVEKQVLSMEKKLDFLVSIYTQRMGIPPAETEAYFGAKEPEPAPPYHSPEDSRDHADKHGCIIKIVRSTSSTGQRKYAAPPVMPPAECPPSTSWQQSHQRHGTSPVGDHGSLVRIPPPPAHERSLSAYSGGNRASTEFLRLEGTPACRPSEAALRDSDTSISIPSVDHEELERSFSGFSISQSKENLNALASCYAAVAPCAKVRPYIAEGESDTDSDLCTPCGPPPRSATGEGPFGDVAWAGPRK
KCNQ2 pot baseline – second read-out of KCNQ2 pot, no call of its own (marks repeat the call); B-score; compound at 10 µM; measured here: initial fluorescence intensity artifact check;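 brightness before thallium and not channel activity; 0 = typical well and far values either way flag optical interference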
* hit, by the source's call.

KCNQ2 pot,KCNQ2 pot baseline,SMILES
0.18,-1.8,Cc1ccc(C2NC(=S)NC3=C2C(=O)CC(C)(C)C3)cc1 (stereo not given)
0.11,-0.76,C=CCn1c(SCc2cc([N+](=O)[O-])cc3c2OCOC3)nc2cc(C(=O)O)ccc2c1=O
0.22,-0.02,C=CCc1c(C)nc(SC)nc1Nc1ccc(C(C)=O)cc1
2.4,-0.61,Cc1ccc2nc(-c3ccc(NC(=O)CSc4nccc(=O)[nH]4)cc3)sc2c1
0.04,0.65,NC(=O)COC(=O)[C@@H]1CC(O)CN1S(=O)(=O)c1ccc2c(c1)OCCO2 (stereo not given in full)
0.12,-2.3,COc1ccc(COC(=O)c2ccc(Br)c(S(=O)(=O)N3CCOCC3)c2)cc1F
0.33,0.17,COc1cccc(C(=O)Nc2cc(NC(=O)c3ccco3)ccc2OC)c1
0.42,-0.93,COC/C=C/C1=CC2=CC(=O)C(C)(O)C(=O)C2=CO1 (stereo not given)
0.81,0.29,CCNC(=O)/C(=C/c1cccc([N+](=O)[O-])c1)NC(=O)c1ccc(C)cc1
1,0.22,COc1ccc(CCNC(=O)C2CC(c3ccc([N+](=O)[O-])cc3)=NO2)cc1 (stereo not given)
1.8,-2.4,CCOc1ccc(C2C(C(=O)c3ccco3)=C(O)C(=O)N2Cc2cccnc2)cc1 (stereo not given)
3.2,-2.5,O=C(Cc1ccc(Cl)cc1)Nc1ccc(Br)cc1
0.11,-0.25,NC(=O)c1oc2ccccc2c1NC(=O)C1COc2ccccc2O1 (stereo not given)
0.22,0.05,CCCCCCC(=O)c1c(C)[nH]c(C(=O)OCC)c1C
0.73,0.02,COc1cccc(C(=O)Nc2ccc(NC(=O)C3CC3)cn2)c1
1.4,0.02,CCNc1nc(NCC)n2c(SCC(=O)Nc3ccc(NC(C)=O)cc3)nnc2n1
1,1.7,COc1ccc(OC)c(/C=N/c2c(-c3ccc(O)c(OC)c3)nc3ccccn23)c1
0.78,0.11,CCCCOc1ccc(NC2=NC3(CCCCC3)N=C(N)N2)cc1
7*,-1.2*,CC(C)(C)c1ccc(OCCC(=O)NCC(c2cccs2)N2CCOCC2)cc1 (stereo not given)
0.68,-0.36,CCN(CC(=O)Nc1ccc(NC(C)=O)cc1)C(=O)Cc1coc2cc(C)c(C)cc12

Whole records, looked up by structure.
Record of NC(=O)COC(=O)[C@@H]1CC(O)CN1S(=O)(=O)c1ccc2c(c1)OCCO2 (stereo not given in full) : KCNQ2 pot: 0.04; KCNQ2 pot baseline: 0.65
Record of O=C(Cc1ccc(Cl)cc1)Nc1ccc(Br)cc1 : KCNQ2 pot: 3.2; KCNQ2 pot baseline: -2.5
Record of NC(=O)c1oc2ccccc2c1NC(=O)C1COc2ccccc2O1 (stereo not given) : KCNQ2 pot: 0.11; KCNQ2 pot baseline: -0.25

Next compounds.
KCNQ2 pot,KCNQ2 pot baseline,SMILES
0.28,0.88,Cn1c(SCC(=O)NCc2ccco2)nnc1C1CCCC1
1.3,0.98,COC(=O)c1ccccc1NC(=O)CC#N
2.5,0,Cc1ccc2nc3c(cc(C(=O)NCCc4ccccc4)c(=N)n3CCCN3CCOCC3)c(=O)n2c1
1.6,1.9,O=C(c1ccc([N+](=O)[O-])cc1)N1CCCC1
0.13,-1.6,C=CCNS(=O)(=O)c1ccc2c(c1)n(C)c(=O)n2C
2,0.64,COc1ccc(NC(=O)CN(C)C(=O)C2CC(=O)N(Cc3ccc(C)cc3)C2)cc1 (stereo not given)
0.29,-3.7,CCC(=O)Oc1cccc(C(=O)Nc2cccc(NC(=O)c3ccco3)c2)c1
0.35,-0.27,Cc1ccc(C(=O)N2CC(=O)Nc3ccc(F)cc3C2c2ccccc2)cc1 (stereo not given)
0.11,-3.4,c1ccc2c(c1)nc(CN1CCOCC1)n1c3ccccc3nc21
0.74,-1,Cc1cc2cc(CNC(=O)c3cccs3)ccc2n1C
0.73,-0.79,Cc1cc2cc(C)c3nnc(SCC(=O)NCc4ccco4)n3c2cc1C
0.09,-0.72,COCCNC(=O)CSc1nc2cc(OC)c(OC)cc2c(=O)n1Cc1ccc(OC)cc1
0.27,-0.22,COc1ccc(-c2cnc3nc(/N=C/N(C)C)nn3c2/N=C/N(C)C)cc1
0.78,2.1,CCCCCc1cc(=O)oc2c(C(CCN3CCN(c4ccccc4)CC3)c3ccc4c(c3)OCO4)c(OC)cc(OC)c12 (stereo not given)
0.31,0.26,Brc1ccc(CN2CCN(c3ccccc3)CC2)o1
1.7,-1.2,O=C(Cc1nc2ccccc2s1)c1ccc(O)cc1O
0.45,0.28,Cc1ccc(NC(=O)c2oc3ccc(S(=O)(=O)N4CCOCC4)cc3c2C)c(C)c1
1.2,-0.02,COc1ccccc1CNc1nc2nc(C)cc(=O)n2[nH]1
1.4,1.5,CCN1CCN(CCCNC(=O)c2ccc(NC(=O)C3=CSCCO3)cc2)CC1
3.8,-1.5,CC(=O)c1cccc(S(=O)(=O)N2CCC(c3nc4ccccc4[nH]3)CC2)c1
1.1,0.06,O=C(Nc1cccc(F)c1)c1ccc2c(c1)OCO2
0.59,-0.31,CCOC(=O)c1c(NC(=O)c2ccco2)sc2c1CCCC2
0.01,1.9,CC(=O)Nc1ccc(S(=O)(=O)N(Cc2cc3ccc(C)cc3[nH]c2=O)CC2CCCO2)cc1 (stereo not given)
0.13,0.62,O=C(CSc1nc(-c2ccc(F)cc2)cc(C(F)(F)F)n1)NCc1ccco1
1.3,1.7,CSCCC(NC(=O)CCC(=O)OCC(=O)[C@@]1(O)CCC2[C@@H]3CCC4=CC(=O)C=C[C@]4(C)C3[C@@H](O)C[C@@]21C)C(=O)O (stereo not given in full)
0.05,-0.73,O=C(Cc1cn2ccsc2n1)Nc1cccc2cnccc12
1.2,-1.3,C=CCC1CCCCC12NC(=O)N(c1ccccc1)N2 (stereo not given)
0.01,-1.6,O=C(COC(=O)c1cccnc1)c1ccc(Cl)c(Cl)c1
1.8,0.11,CN(C)S(=O)(=O)c1cccc(NC(=O)c2ccc(S(=O)(=O)N3CCCC3)cc2)c1
0.02,-0.18,CC(C)c1ccc(C(=O)NCCCNC(=O)c2cnccn2)cc1
0.63,-1.8,CCCc1c(C)c(C#N)c2nc3ccccc3n2c1NCCCN1CCOCC1
0.18,1.6,CC(C)Oc1ccc(S(=O)(=O)N2CCOCC2)cc1NC(=O)Cc1cccs1
0.39,0.43,CN1C(=O)C2CN(CCc3ccccc3)CNC2N(C)C1=O (stereo not given)
0.59,1.7,COc1ccccc1C(=O)COC(=O)/C(=C/c1ccccc1)NC(C)=O
0.57,1.1,Cc1ccn2c(NC3CCCCC3)c(C(C)C)nc2c1
0.04,1.3,COC(=O)c1ccc(C(=O)OCc2nc3cc4ccccc4cc3[nH]2)cc1
1.5,-0.86,CSCC[C@H](N)C(=O)NCC1CCC(C(=O)Nc2ccc3c(c2)OCO3)CC1 (stereo not given in full)
0.38,-0.25,CCOc1ccc2[nH]c(=O)c(C(c3nnnn3CCOC)N3CCOCC3)cc2c1 (stereo not given)
1,-0.81,CCN1CCC2(CCN(Cc3cn[nH]c3-c3ccc(OC)c(F)c3)C2)C1 (stereo not given)
0.14,0.4,CC(=O)COC(=O)CNC(=O)c1ccc(Br)cc1
0.69,-0.01,O=C(CSc1nnc(-c2ccccc2O)o1)NC1CCCCC1
0.09,1.5,CCC(=O)Nc1ccc(NC(=O)c2cc3ccccc3o2)cc1
2.3,1.5,CC(NC(=O)CCc1nnc(C2CCCCC2)o1)c1ccc(F)cc1 (stereo not given)
0.82,0.3,CC(=O)Nc1ccccc1C(F)(F)F
2.4,0.95,COc1ccc(OC)c(S(=O)(=O)Nc2cccc(F)c2)c1
0.03,0.67,Cc1cc[n+](-c2[nH]c(=O)sc2/C=N/N=C(\[O-])c2ccncc2)cc1C
1.5,-1.3,CCOc1cc(/C=C2\SC(=N)N(c3nccs3)C2=O)ccc1OCCN1CCOCC1
1.8,0.02,CN1CCN(C(=S)NC(=O)c2ccco2)CC1
0.23,0.72,O=C(CC1Sc2ccccc2NC1=O)NCc1ccc(Cl)cc1 (stereo not given)
1.1,-0.53,CS(=O)(=O)N1CCN(c2nnc(-c3ccccc3)c3ccccc23)CC1
1.1,0.43,Cc1cc(NS(=O)(=O)c2ccc(NC(=O)CSc3nc4sc(C(=O)O)c(C)c4c(=O)[nH]3)cc2)no1
1.5,0.37,COc1ccc(NC(=O)c2ccc(S(=O)(=O)NCc3cccnc3)cc2)cc1
0.46,0.21,Cc1ccc(C)c(NC(=S)N(CCc2nc3cc(C)c(C)cc3[nH]2)Cc2cccnc2)c1
3.2,-0.08,O=C(Nc1ccccc1)Nc1ccc2ocnc2c1
0.81,0.13,Cc1cc(NC(=O)CSc2ccccc2)no1
0.52,-1.4,CCNC(=O)C(=O)NCC1OCCCN1S(=O)(=O)c1ccc(F)cc1C (stereo not given)
0.3,0.79,COCCn1c(=O)[nH]c2cc(C(=O)NCCc3ccc(OC)c(OC)c3)ccc2c1=O
0.05,0.03,O=C(CC1SC(=Nc2ccc3c(c2)OCCO3)NC1=O)Nc1ccc(F)cc1F (stereo not given)
1.3,-0.83,Cn1c(COc2cccc3cccnc23)nnc1SCC(=O)O
0.29,0.36,COc1ccccc1NC(=O)CC(NCCN(C)C)C(=O)O (stereo not given)

Following part
KCNQ2 pot,KCNQ2 pot baseline,SMILES
0.04,0.82,COC(C[C@@H]1O[C@@H]1[C@@H](O)[C@@H](C)OCc1ccccc1)OC
0.43,0.8,Cc1ccc2c(c1)N(S(=O)(=O)c1ccc3c(c1)NC(=O)CC(=O)N3)CCO2
1.2,-0.01,O=C(CCc1nc2ccccc2c(=O)[nH]1)Nc1nc(-c2cccs2)cs1
0.04,-0.02,CCOC(=O)c1cnc2ccc(C(=O)OC)cc2c1Nc1ccc(C(=O)O)cc1
0.87,-0.6,Cc1sc(NC(=O)CSc2nnc(-c3ccccc3)o2)c(C#N)c1C
0.86,1.7,O=C(Nc1cc2c3c(c1)CC(=O)N3CCC2)c1ccc(Cl)cc1
0.57,0.06,O=C(O)C1CCN(C(=O)c2cccc3ccccc23)CC1
1.2,-0.85,CCn1cc(C(=O)O)c(=O)c2cc(F)c(N3CCN(C(=S)NC(=O)c4ccc(F)cc4)CC3)cc21
7*,-0.23*,CCOC(=O)c1c(NC(=O)/C=C/C(=O)O)sc(C)c1-c1ccc(C(C)(C)C)cc1
0.39,2.3,COc1cccc(NC(=O)Cn2c(=O)oc3cc(S(=O)(=O)N4CCCC4)ccc32)c1
2,-1.5,CCc1ccc(NC(=O)CSc2nc(=O)n3cc(C)ccc3n2)cc1
0.17,-0.06,CCOC(=O)c1c(NC(=O)c2ccco2)sc(C(=O)N2CCCC2)c1C
1,-3.5,Cc1[nH]n(-c2ccccc2)c(=O)c1-c1ccc(Cl)cc1
0.21,0.05,CC(=O)c1ccc(OC(C)C)c(Cc2c(O)nc(N)[nH]c2=O)c1
0.24,-2,COc1ccc(-c2nnc(SCC(=O)NC3CCCCC3)o2)cc1
0.03,0.06,Cc1ccc2cc(CN(CC3CCCO3)C(=S)Nc3ccccc3)c(=O)[nH]c2c1 (stereo not given)
1.5,0.24,CC(C)OC(=O)CSc1nc2ncccc2[nH]1
0.99,-1.5,CC(NC(=O)C12CC3CC(CC(O)(C3)C1)C2)c1ccccc1 (stereo not given)
0.54,-0.02,Cc1ccc(C2C(C#N)=C(N)SC(N)=C2C#N)o1
0.21,-0.69,Cc1ccccc1CSc1nc2ccccc2c(=O)[nH]1

Rewritten as labelled records: 4 of the compounds above.
CCn1cc(C(=O)O)c(=O)c2cc(F)c(N3CCN(C(=S)NC(=O)c4ccc(F)cc4)CC3)cc21
  KCNQ2 pot: 1.2	KCNQ2 pot baseline: -0.85
CCOC(=O)c1c(NC(=O)/C=C/C(=O)O)sc(C)c1-c1ccc(C(C)(C)C)cc1
  KCNQ2 pot: 7*	KCNQ2 pot baseline: -0.23*
Cc1ccc2cc(CN(CC3CCCO3)C(=S)Nc3ccccc3)c(=O)[nH]c2c1 (stereo not given)
  KCNQ2 pot: 0.03	KCNQ2 pot baseline: 0.06
CC(C)OC(=O)CSc1nc2ncccc2[nH]1
  KCNQ2 pot: 1.5	KCNQ2 pot baseline: 0.24

Continued:
KCNQ2 pot,KCNQ2 pot baseline,SMILES
1.6,0.01,COc1ccc(CCn2c(C)cc3c(c2=O)C(c2ccc4c(c2)OCO4)C(C#N)=C(N)O3)cc1OC (stereo not given)
1.2,1.2,CC1CCN(C(=O)CCCC(=O)N2CCC(C)CC2)CC1
0.69,-0.44,CCCN(CC(=O)Nc1ccc(C(C)=O)cc1)CC(=O)Nc1ccccc1C
0.63,-1,CN1c2ccccc2C(C)(C)C12CC(CCl)=NO2 (stereo not given)
1.7,2.2,Cc1cc(=O)oc2c3c(cc(OCC(=O)NC(Cc4ccc(Cl)cc4)C(=O)O)c12)OC(C)(C)CC3 (stereo not given)
0.41,-0.52,CC1(C)Cc2c(c(=S)nc(-c3ccccc3)n2CCCN2CCOCC2)CO1

Screening data from PubChem.

A portion of the library (hit frequency here may not be typical).
